Bioassay records from PubChem BioAssay.
NPYLR7 agonist – agonists of mosquito NPYLR7 receptor, primary screen, cell-based, Aedes aegypti, calcium fluorescence, mosquito biting behavior; Aedes aegypti neuropeptide Y-like receptor 7 (NPYLR7); HEK293T NPYLR7/Galpha15, GCaMP6s calcium fluorescence; activation, % at 10 µM; 0.15% of 270,000 active; AID 1259423, 2018; in the data active = activation above about 40%;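 also: 0% = vehicle and 100% = reference agonist at the receptor; some compounds past the cut are filed as inactive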
NPYLR7 agonist max-min – second read-out of NPYLR7 agonist, no call of its own (marks repeat the call); activation, %; measured here: Max-Min RFU normalised activation; some inactives read as strong as hits;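 span of the calcium signal over five minutes; 0% = vehicle and 100% = native peptide agonist; compound fluorescence can raise it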
Starred values were filed as active, the others as inactive; & = joins results of further samples.

nr | compound | NPYLR7 agonist | NPYLR7 agonist max-min
1 | CC(C)c1ccccc1NC(=O)CN1C(=O)C(Oc2ccccc2)C1c1ccccn1 (centres undefined) | 16 | 18
2 | CCOC(=O)Cn1c(=NC(=O)c2cc(C)n(CC)n2)sc2cc(F)ccc21 | 0 | 0
3 | CC(=O)NC1C(Oc2cccc(C)c2)OC(COC(C)=O)C(OC(C)=O)C1OC(C)=O (centres undefined) | 6 | 9
4 | CCOc1ccc(-n2nnnc2CNC(=O)c2cccc3ccccc23)cc1 | 11 | 11
5 | CCc1nc(-c2ccccc2)nc(N2CCN(C(=O)c3ccco3)CC2)c1Cc1cc(C)ccc1C | 0 | 2
6 | Cc1ccccc1N1CCN(c2cc(Cl)nc(SCc3cccc(C(=O)NCc4cccc(C(F)(F)F)c4)c3)n2)CC1 | 17 | 15
7 | O=C(NCc1ccc(Cl)cc1)NCC1CNCCOC1 (centres undefined) | 5 | 6
8 | COc1cccc(Cc2[nH]nc3ccnc(-c4cccc(OC)c4)c23)c1 | -4 | 2
9 | O=C(CCN1CCCCO1)N1CCCC(CNS(=O)(=O)c2cccs2)C1 (centres undefined) | 3&2 | 0&-1
10 | CN(CC1CC(=O)N(C(C)(C)C)C1)c1nccc(CCC(F)(F)F)n1 (centres undefined) | 1 | 29
11 | Cc1ccc(CNC(=O)CCn2cnc3sccc3c2=O)cc1 | 2 | 3
12 | CCc1nc(C)ccc1OCC(=O)N1CCCC2(CN(C)C(=O)O2)C1 (centres undefined) | 6 | 4
13 | CN1CCN(C)C2(CCN(c3nccc(N4CCC(O)C4)n3)CC2)C1 (centres undefined) | 18 | 12
14 | CCCC(C)C(=O)N1CCN(C(c2ccccc2)c2ccc(Br)cc2)CC1 (centres undefined) | 27 | 11
15 | CCCCN(C)c1ccc(NC(=O)N2CCN(CC(N)=O)CC2)cc1 | 3 | 12
16 | Cc1cccc(CN(Cc2ccco2)CC(O)COc2ccc(Cl)cc2)c1 (centres undefined) | 6 | 11
17 | [O-][n+]1c2ccccc2[n+]([O-])c2cc(O)ccc21 | -9 | -15
18 | CCc1nc2n(n1)C(=O)C(C(c1cccs1)N1CCN(c3ccc(OC)cc3)CC1)S2 (centres undefined) | -7 | -7
19 | CC(C)Cc1ccc(C(NCc2nnc(C(C)C)o2)C(C)C)cc1 (centres undefined) | 6 | 2
20 | Cc1cc(C(C)NC(=O)c2cccc3c2OCCO3)c(C)o1 (centres undefined) | 6 | 4
21 | Cc1ccc(N2CCC(C(=O)NCC(C)C)C2=O)c(Cl)c1 (centres undefined) | 6 | 4
22 | COc1cccc(NC(=O)NCCNc2ccc(Nc3cccc(C)n3)nn2)c1 | 11 | 5
23 | O=C1CC(COCc2ccccc2)c2c(n[nH]c2-c2cccs2)N1 (centres undefined) | 3 | 10
24 | COc1ccc(-c2ccc(OC)c3nc(C)ccc23)nn1 | 1 | 0
25 | Cc1nc(N(C)C)ncc1C(=O)N1CCN(C)C2(CCN(C)CC2)C1 | 2 | 2
26 | Cc1ccc(O)c(NC(=O)c2cnn3c(C(F)(F)F)cc(-c4ccc(F)cc4)nc23)c1 | 2 | 1
27 | c1ccc(Cn2c(-c3nnco3)cc3ccccc32)cc1 | -4 | -4
28 | CCN(CC)S(=O)(=O)CCNC(=O)N(C)Cc1ccc(F)cc1 | 13 | 6
29 | CC1Cc2nc(SCC(=O)Nc3nc4ccccc4s3)n(C)c(=O)c2S1 (centres undefined) | -4 | -5
30 | Cc1nc2sc(C(=O)OCC(=O)Nc3ccccc3C#N)c(C)c2c(=O)[nH]1 | 6 | 3
31 | CCOC(=O)c1c(NC(=O)C2COc3ccccc3O2)c(-c2ccc3c(c2)OCO3)cn1C (centres undefined) | 13 | -4
32 | Cc1ccccc1CN(CC(=O)N1CCSC1c1ccccc1Cl)C(C)C (centres undefined) | 0 | 1
33 | COc1ccc(-c2noc(CSc3nnnn3C3CCCC3)n2)cc1 | 3 | 1
34 | O=C(CCc1cccnc1)N1CC[C@@H](c2ccc3c(c2)OCO3)[C@H](O)C1 | 15 | 10
35 | CNC(=O)CN(C)C(=O)NCC(C)(c1ccccc1)c1ccccc1 | 4 | 3
36 | OC1CCN(c2ccnc(-c3ccccc3CN3CCOCC3)n2)CC1 | 5 | 2
37 | COc1ccc2c(c1)CCC1C2CC[C@@]2(C)C1CC[C@@H]2NCCCCCCN1C(=O)CCC1=O (some centres undefined) | 0 | -14
38 | Cc1ccc(Cl)cc1N1CCN(c2cccc[n+]2C)CC1 | -7 | -9
39 | CN(CC(=O)NC1CC1)C(=O)c1cc2c(s1)-c1ccccc1OC2 | 0 | -1
40 | COc1ccc(N2CCN(C(=O)C3CC=CCC3C(=O)NC(c3ccccc3)c3ccccn3)CC2)cc1 (centres undefined) | -7 | -15
41 | Cc1ccc(CN2CCC(CN(C)Cc3ccc(OC(C)C)cc3)CC2)o1 | 2 | -1
42 | CC(NC(=O)OCc1ccccc1)C(=O)N1CCOC(COCc2ccccc2F)C1 (centres undefined) | -4 | -8
43 | Cc1sc2nc(CC(=O)C(C)(C)C)nc(N)c2c1C | 0&10 | 1&3
44 | CN=c1scc(-c2cc(Cl)ccc2Cl)n1N=Cc1ccc(O)cc1O | -6 | -16
45 | CCN1C(=O)/C(=C2\SC(=S)N(CCOC)C2=O)c2ccccc21 | -3 | -4
46 | CC1CC(=O)Nc2ccccc2N1C(=O)CSC1=NCCS1 (centres undefined) | 10 | 3
47 | CSc1ccc(COc2coc(CN3CCN(C(=O)c4cnc5c(c(C)nn5C)c4Cl)CC3)cc2=O)cc1 | 21 | 16
48 | S=c1nc(-c2ccccc2)n(CCCn2ccnc2)c2c1CCCC2 | 4 | 4
49 | Clc1cccc(-c2nccn2CCc2cccnc2)c1 | 6 | 3
50 | CCCNC(=O)C1CCCN(CCOc2ccc(Cl)cc2)C1 (centres undefined) | 2 | 1
51 | Cn1ncc(Oc2ccc3c(c2)OCO3)c(Nc2cccc(C(=O)NC3CC3)c2)c1=O | 7 | 16
52 | CCCN(CC(=O)OCC)C(=O)c1cc(F)cc(Br)c1 | 14 | 13
53 | Cn1ccc2c(-c3cccc(O)c3)ccnc21 | 19 | 9
54 | CCOc1cccc(CN(C(=O)OC(C)(C)C)C2CCC(C(=O)N3CCOC(Cc4ccccc4)C3)CC2)c1 (centres undefined) | 5 | 2
55 | Cc1ccc(Nc2nc(NCCO)nc3nccnc23)cc1 | 2 | 12
56 | COC(=O)C1=C(C(=O)OC)SC(=C2C(=S)C(C)(C)Nc3ccccc32)S1 | 5 | 8

Continuation.
nr | compound | NPYLR7 agonist | NPYLR7 agonist max-min
57 | CC(=NNC(N)=S)C1CC2CCC1C2 (centres undefined) | -5 | -10
58 | CCC(=O)OCC(=O)[C@@]1(OC(=O)CC)[C@@H](C)C[C@H]2[C@@H]3CCC4=CC(=O)C=C[C@]4(C)[C@@]3(Cl)[C@@H](O)C[C@@]21C | -5&-1 | -11&-7
59 | CN(CC(=O)Nc1ccc(N2CCN(Cc3ccccc3)CC2)cc1)C1CCCCC1 | 6 | 6
60 | O=C(CCN1CCCO1)N1CCCC(CNC(=O)C2(c3ccc(Cl)cc3)CC2)C1 (centres undefined) | 12 | 8
61 | Cc1ccc(NC(=O)NCCOc2ccc3nnc(-c4ccccc4)n3n2)cc1C | 15 | 7
62 | CN(C(=O)c1ccc(CC2CCCNC2)cc1)C1Cc2ccccc2C1 (centres undefined) | 1 | 3
63 | Cc1ccc(C)c(Nc2nnc(Cc3ccccc3)c(=O)[nH]2)c1 | 10 | 5
64 | O=C(CCN(Cc1ccccc1)c1nc(C2CC2)nc2cc(Cl)ccc12)NC1CC1 | 2 | 2
65 | CCOC(=O)c1nn(-c2ccc(C)cc2)c(=O)cc1OCC(=O)Nc1ccccc1OC | 5 | 2
66 | Cc1ccc2nc(CSc3n[nH]c(N)n3)cc(=O)n2c1 | 4 | 3
67 | Cc1cccc(-n2c(C3CCCCC3)n[nH]c2=S)c1 | -7 | -2
68 | CCOc1cc(/C=C2\C(=O)N(c3ccc(S(N)(=O)=O)cc3)N=C2C)ccc1O | -8 | -13
69 | O=[N+]([O-])c1cc(Cl)cc(C=NN2CCOCC2)c1O | 4 | 3
70 | COc1ccc(C(=O)N2CCN(c3ccc(-n4nc(C)cc4C)nn3)CC2)cc1 | -3 | -11
71 | CNc1nc(Nc2cc(C)ccc2C)c2nccnc2n1 | 3 | 7
72 | COc1cccc(C2CCCN2C(=O)Nc2n[nH]c(C3CCCCC3)n2)c1 (centres undefined) | 19 | 8

One compound at a time, as listed above. Values in the order: NPYLR7 agonist, NPYLR7 agonist max-min
CCC(=O)OCC(=O)[C@@]1(OC(=O)CC)[C@@H](C)C[C@H]2[C@@H]3CCC4=CC(=O)C=C[C@]4(C)[C@@]3(Cl)[C@@H](O)C[C@@]21C across the screens: -5&-1, -11&-7
Cc1ccc(CN2CCC(CN(C)Cc3ccc(OC(C)C)cc3)CC2)o1 across the screens: 2, -1
CCc1nc(-c2ccccc2)nc(N2CCN(C(=O)c3ccco3)CC2)c1Cc1cc(C)ccc1C across the screens: 0, 2
CCN(CC)S(=O)(=O)CCNC(=O)N(C)Cc1ccc(F)cc1 across the screens: 13, 6
Cc1ccc(O)c(NC(=O)c2cnn3c(C(F)(F)F)cc(-c4ccc(F)cc4)nc23)c1 across the screens: 2, 1

The results go on:
nr | compound | NPYLR7 agonist | NPYLR7 agonist max-min
73 | CCCCOC(=O)Cn1c(=O)c2c(nc3n2CCCCN3c2ccc(OCC)cc2)n(C)c1=O | -2 | -4
74 | OCCC1CN(Cc2cccc3cccnc23)CCN1C1CCCCC1 (centres undefined) | -1 | -4
75 | CCOc1cc(CN(C)Cc2ccncc2C)ccc1O | 17 | 12
76 | Cc1cc(=O)[nH]c(-n2nc(C)cc2NC(=O)c2ccc([N+](=O)[O-])cc2)n1 | 7 | 0
77 | Cn1cc(-c2cnn3c(N)c(Br)c(C4CCCNC4)nc23)cn1 (centres undefined) | 3 | 0
78 | Cc1cc(Br)ccc1N1C(=O)C2CC=CCC2C1=O (centres undefined) | 1 | 9
79 | O=C1CC(c2cnc3ccccc3n2)c2c(n[nH]c2-c2cccs2)N1 (centres undefined) | 28 | 13
80 | O=C(NCc1ccc(F)cc1)c1cc(C2CCCCN2C(=O)OCCF)on1 (centres undefined) | 3 | 0
81 | O=C(c1cc(COc2ccc3ncccc3c2)on1)N1CCC(c2ccncc2)CC1 | 6 | 4
82 | O=S(=O)(Nc1ccc(S(=O)(=O)C(F)F)cc1)C1=Cc2ccccc2CC1 | -3 | -3
83 | COc1ccccc1C(=O)Nc1ccc(-c2c(-c3ccc(N(C)C)cc3)nn(-c3ccc(C)cc3C)c2OC(C)=O)cc1 | -2 | 5
84 | Cc1ccc(NS(=O)(=O)c2ccc(NN=C3CCC(C)CC3)c([N+](=O)[O-])c2)c(C)c1 (centres undefined) | -3 | -5
85 | C=C(C)Cn1c(=O)c2c(nc3n(-c4ccc(OC)cc4OC)c(C)c(C)n23)n(C)c1=O | 3 | 1
86 | Cc1ccc(NCC(=O)N2CCN(S(=O)(=O)c3ccccc3)CC2)cc1F | 4 | 1
87 | CNC(=O)COC(=O)C=Cc1ccco1 | -4 | -6
88 | Cc1ccc(C(O)=C2C(=O)C(=O)N(Cc3cccnc3)C2c2cccnc2)cc1 (centres undefined) | 1 | -2
89 | C#CCn1c(=NC(=O)CN2C(=O)CCC2=O)sc2cc(F)ccc21 | 5 | 4
90 | COc1ccccc1-c1c(C(F)(F)F)oc2c(CN3CCC(C)CC3)c(O)ccc2c1=O | -9 | -17
91 | Brc1ccc(C=C(c2ccccc2)c2ccncc2)cc1 | 2 | -1
92 | O=c1oc2ccccc2cc1-c1csc(NCc2ccc(F)cc2)n1 | 7 | 4
93 | CN1C[C@@H](NC(=O)c2ccco2)C[C@H]1C(=O)N1CCc2ccccc2C1 | 15 | 13
94 | CCC(CC)C(=O)N(C)c1c(C)nc2c(OCc3ccccc3C)cccn12 | 7 | -1
95 | CCc1nc2ccc(C(=O)Nc3cc(-c4ccccc4)ccc3OC)cn2c1N(C)Cc1nccs1 | -3 | -7
96 | Cc1cc(=O)oc(C)c1C(=O)N(C)C1CCCCC1 | 7 | 5
97 | CC(=O)Nc1ccc(CN2C(=O)C(C)ON=C2c2ncccc2C)cc1 (centres undefined) | -6 | -6
98 | O=C(NCc1ccc(Cl)cc1Cl)c1cccc(N2C(=O)CCC2=O)c1 | 7 | 5
99 | Cc1nn(C)c(C)c1-c1ccnc(N2CCC(c3ccccc3Cl)C2)n1 (centres undefined) | 2 | 1
100 | O=C(O)c1csc(/C=C/c2ccc(F)c(F)c2)n1 | 4 | 5
101 | O=C(NC1CCN(c2ccccc2C(=O)NCc2cccc(C(F)(F)F)c2)CC1)c1cccc(F)c1 | 35 | 47
102 | COc1cc(COc2ccc(CN(C(=O)c3cc4nc(C)cc(C)n4n3)[C@H]3CCCCNC3=O)cc2)cc(OC)c1 | 14 | 6
103 | Nc1nc(Nc2cccc(Cl)c2)nc(NCCO)c1[N+](=O)[O-] | 0 | -2
104 | COc1ccc(-c2cc(C(=O)N3CCN(c4cccc(C(F)(F)F)c4)CC3)n(-c3ccc([N+](=O)[O-])cc3)n2)cc1 | 9 | 4
105 | Cc1ccc(C)c(C(C)NC(=O)Cn2cnc3c(cnn3C)c2=O)c1 (centres undefined) | -6 | -9

5 structures from above, sorted by count of non-hydrogen atoms, ascending.
nr | compound | NPYLR7 agonist | NPYLR7 agonist max-min
55 | Cc1ccc(Nc2nc(NCCO)nc3nccnc23)cc1 | 2 | 12
13 | CN1CCN(C)C2(CCN(c3nccc(N4CCC(O)C4)n3)CC2)C1 (centres undefined) | 18 | 12
2 | CCOC(=O)Cn1c(=NC(=O)c2cc(C)n(CC)n2)sc2cc(F)ccc21 | 0 | 0
26 | Cc1ccc(O)c(NC(=O)c2cnn3c(C(F)(F)F)cc(-c4ccc(F)cc4)nc23)c1 | 2 | 1
54 | CCOc1cccc(CN(C(=O)OC(C)(C)C)C2CCC(C(=O)N3CCOC(Cc4ccccc4)C3)CC2)c1 (centres undefined) | 5 | 2

The list is partial. The share of hits here may be higher or lower than overall.
